gsp agonist: gsp mutant agonism. gsp mutant cells, cAMP HTRF, 30 min; control for the full effect not named in the record. Potency, µM (highest dose often 76.9 µM), for the others: at the highest dose activation (cAMP increase), actives largely listed as activators. 340,000 compounds, 0.13% hits. AID 624287; active = well fitted activation curve with a large enough effect; inconclusive = small, poorly fitted or top-dose-only effect, or another doubt; inactive = no such curve, though single readings can be large or run the other way; cell line not stated here;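 note: phosphodiesterase inhibitor Ro 20-1724 added with compounds to block cAMP breakdown; potency is the fitted concentration of half-maximal effect; nearly all actives have a fitted effect of over 60% in size; about a fifth of the inactives were tested at one dose only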
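Cells in DMEM/10% FBS with G418 were pretreated with compounds in DMSO plus […] (300 uM stock) for 30 min at 37C. cAMP was measured by HTRF (cAMP-d2 plus anti-cAMP antibody-K) after 30 min at room temperature.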
TRPML1 blocker: inhibitors of human TRPML1 channel. TRPML1-inducible cells, Ca2+ dye fluorescence, FDSS; active compounds read low; inhibition of EC80 agonist-evoked calcium signal. activity change, negative = inhibition, % (concentration not given with the values). 390,000 compounds, 0.02% hits. AID 624415; in the data active means activity change below about -50%; inconclusive means about -30% to -50%; inactive means above about -30%;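 note: stimulus is agonist 54-4 at its EC80 concentration; % is set by controls: 0 for no effect and ±100 for the full control effect; the text of the record puts the active cut at -80%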
Target sequence (Q9GZU1 whole entry, looked up): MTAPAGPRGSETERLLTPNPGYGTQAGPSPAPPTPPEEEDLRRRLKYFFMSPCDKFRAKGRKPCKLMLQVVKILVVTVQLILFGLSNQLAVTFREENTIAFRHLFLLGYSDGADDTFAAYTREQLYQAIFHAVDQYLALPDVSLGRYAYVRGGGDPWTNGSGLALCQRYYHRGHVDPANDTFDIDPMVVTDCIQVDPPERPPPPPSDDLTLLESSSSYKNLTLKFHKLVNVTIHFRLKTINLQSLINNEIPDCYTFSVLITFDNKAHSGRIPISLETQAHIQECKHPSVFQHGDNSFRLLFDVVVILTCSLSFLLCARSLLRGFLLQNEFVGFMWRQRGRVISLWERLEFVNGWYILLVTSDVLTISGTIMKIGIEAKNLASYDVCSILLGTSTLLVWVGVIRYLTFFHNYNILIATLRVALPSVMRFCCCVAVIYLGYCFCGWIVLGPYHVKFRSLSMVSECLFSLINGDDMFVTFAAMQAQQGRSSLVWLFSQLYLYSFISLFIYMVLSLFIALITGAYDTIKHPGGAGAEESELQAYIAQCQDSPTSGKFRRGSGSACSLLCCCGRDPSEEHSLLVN
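TRPML1-DL cells, Tet-induced overnight (~16 h, 37 °C) at 1,500 cells/well, were loaded with Ca8 no-wash dye plus quencher for 45-90 min at room temperature. Compounds were pinned during FDSS kinetic reading; agonist 54-4 at EC80 (4 uM final) then added.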
gsp antagonist: antagonizes gsp, the McCune-Albright syndrome mutation; Potency, µM (doses to about 76.9 µM), for inactives: at the top dose activity change, negative = inhibition, hits mostly inhibitors; 340,000 compounds, 0.4% hits; gsp-mutant cells, cAMP HTRF, 30 min; control for the full effect not named in the record; active = falling curve of any shape with a large fitted effect; inconclusive = falling curve, mostly with a smaller effect; inactive = flat or rising curve; cell line not stated here;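 note: intracellular cAMP measured with PDE inhibitor Ro 20-1724 present during compound exposure; potency is the fitted concentration of half-maximal effect; % is set by controls: 0 for no effect and ±100 for the full control effect; nearly all actives have a fitted effect of over 65% in size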
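Cells, 2000/well, grown 16–24 h in DMEM 10% FBS with 0.5 mg/ml G418, then compounds plus […] (300 uM addition stock), 30 min at 37C. cAMP read by HTRF (cAMP-d2 and anti-cAMP antibody-K in lysis buffer) after 30 min RT.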
ClpP mod: qHTS Assay for Activators of ClpP | ATP-dependent Clp protease proteolytic subunit (Bacillus subtilis (strain 168)), P80244 | purified B. subtilis ClpP, FRET peptide cleavage, 20 min | Potency, µM (series often up to 57.5 µM), for the others: at the highest dose activity change, negative = active | 340,000 compounds, 1.9% hits; active = well fitted falling curve with a large enough effect; inconclusive = small, poorly fitted or top-dose-only effect; inactive = no such curve, though single readings can be large or run the other way; note: potency is the fitted concentration of half-maximal effect; the source files actives as falling curves though it sought activators and does not explain the sign; nearly all actives have a fitted effect of over 65% in size; many hits overshoot -100%
Target sequence (P80244 whole entry, looked up): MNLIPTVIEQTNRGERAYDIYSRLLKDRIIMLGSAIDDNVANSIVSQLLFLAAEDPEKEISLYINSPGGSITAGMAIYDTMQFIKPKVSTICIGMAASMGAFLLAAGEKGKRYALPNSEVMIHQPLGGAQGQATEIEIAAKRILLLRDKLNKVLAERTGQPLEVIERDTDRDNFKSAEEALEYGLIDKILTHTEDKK
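Purified B. subtilis ClpP, 10 microg/mL final in Tris/HCl pH8 with KCl, BSA, glycerol and Tween-20, cleaved an Abz/nitrotyrosine-quenched decapeptide. Fluorescence (ex 320, em 430) was read at 0 and 20 min at room temperature. Delta was normalized to 5.8 microM ADEP and DMSO/no-enzyme controls.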
TRPML1 agonist: agonists of human TRPML1 channel | 410,000 compounds, 0.12% hits | activation, % (concentration not given with the values) | TRPML1-expressing cells, Ca2+ dye fluorescence, FDSS; host cell line not named in the record; reference of the full effect not given here | Q9GZU1 | AID 624414; in the data active = activation above about 50%; inconclusive = about 30% to 50%; inactive = below about 30%; note: 0% is about no effect; the text of the record puts the active cut at 80%
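Agonist activity was taken from a 110 s kinetic Ca2+ dye read on the FDSS after pinning compounds onto TRPML1-DL cells. The cells were seeded at 1,500/well with Tet inducer, incubated about 16 h, then dye-loaded at room temperature.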
Menin-MLL FL inh: menin-MLL binding inhibition, fluorescein peptide; 290,000 tested, under 10 active; FP activity change, % at 61.4 µM; Fluorescence polarization, fluorescein-MLL peptide displacement from menin; inconclusive = falling polarisation curve, or a change in total fluorescence; inactive = total fluorescence flat and polarisation flat or rising; no compound was filed as active; the % refers to the polarisation; negative = inhibition;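 note: % of control where 0% means no effect; inhibitors lower the polarisation; unlabelled MLL peptide was the positive control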
Numbers without * were called inactive; ? = inconclusive; nt = not tested or not shown; [ ] = dose if it differs, or a comment.

#1 Cc1sc2ncnc(N3CCN(CCOc4ccc(Cl)cc4)CC3)c2c1C
#2 CC1(C)CC(NC(=O)C23CCC(C)(C(=O)C2=O)C3(C)C)CC(C)(C)N1 (stereo unspecified)
#3 CC(=O)NS(=O)(=O)c1cccnc1Nc1cccc(Cl)c1
#4 CCOC(=O)c1c(C)oc2nc(C)nc(NCC3CCN(Cc4cc(C)ccc4C)CC3)c12
#5 O=C(COc1ccccc1)N1CCCCCCC1
#6 Cn1nc(C(F)(F)F)c(-c2ccc(F)cc2)c1NC(=O)c1cccnc1
#7 COc1ccc(-c2cc(-c3ccccc3)nc3c2COc2ccccc2-3)cc1
#8 COCCCNc1ncnc2c1cnn2-c1ccc(F)cc1
#9 O=C(CS(=O)(=O)Cc1ccccc1)N1CCc2ccccc2C1
#10 COc1ccc(NC(=O)O[C@@H](C)[C@@H]2CN3CCc4c([nH]c5ccc(-c6ccc(OC)cc6)cc45)[C@@H]3C[C@@H]2N(C)C(=O)Nc2ccc(OC)cc2)cc1

compound no.	1	2	3	4	5	6	7	8	9	10
gsp agonist	-41%[inhibitor]	-3%	-7%	nt	4%[15.4 µM]	2%	nt	nt	-4%[15.4 µM]	-26%
TRPML1 blocker	25	2	-24	27	2	52	-4	-9	15	6
gsp antagonist	?	-4%	5%[15.4 µM]	nt	-5%	9%	nt	nt	4%	nt
ClpP mod	-2.6%	-2.9%	-7.7%	-3.0%	0.6%	2.5%	4.3%	4.6%	-9.5%	-11%
TRPML1 agonist	3.6	0.9	0.9	-0.1	-0.1	0.5	-0.1	-0.8	1.8	-0.3
Menin-MLL FL inh	11	-0.7	5.2	nt	-3.7	3.1	nt	nt	3.1	nt

#11 NNC(=O)c1ncoc1-c1ccc(Cl)cc1
#12 CCCc1cc(C(=O)N2CCC(N3CCC(C(=O)NC(C)C)CC3)CC2)n(C)n1
#13 COc1ccc(OC)c(C(=O)COC(=O)c2[nH]c(C)c(C(C)=O)c2C)c1
#14 O=C(CSc1nnc(-c2ccccc2)c(-c2ccccc2)n1)Nc1ncc(Cl)cc1Cl
#15 Cc1cn([C@H]2C[C@H](O)[C@@H](CNCc3ccc(F)c(N4CCOCC4)c3)O2)c(=O)[nH]c1=O
#16 C#CC(CC)(CC)NC(=O)Nc1ccccc1C(=O)OC
#17 Cc1ccc2c(c1)Sc1ccccc1CC2=O
#18 O=c1n(Cc2ccc(Cl)cc2)c2ccccc2c2nc(-c3ccccc3)nn12
#19 Nc1c(N=O)c(=O)[nH]c(=O)n1-c1ccccc1
#20 Cc1ccc(C(=O)NC(C(=O)Nc2cccc(S(N)(=O)=O)c2)C(C)C)cc1 (stereo unspecified)

compound no.	11	12	13	14	15	16	17	18	19	20
gsp agonist	3%	-1%	17%[15.4 µM]	-11%	3%	-6%	?	nt	-9%[15.4 µM]	7%[15.4 µM]
TRPML1 blocker	-10	-10	36	0	-2	3	6	35	-11	-11
gsp antagonist	-2%	7%	-12%	9%	nt	1%	-16%	nt	2%	2%
ClpP mod	-0.1%	nt	89%	-2.1%	0.1%	5.1%	-6.8%	-20%	?	nt
TRPML1 agonist	-0.2	0.4	1.0	0.0	0.1	-1.5	-0.3	3.4	0.0	0.4
Menin-MLL FL inh	6.6	2.9	nt	11	nt	0.7	-1.5	nt	nt	0.5

6 records picked at random from those above:
#19 Nc1c(N=O)c(=O)[nH]c(=O)n1-c1ccccc1
#12 CCCc1cc(C(=O)N2CCC(N3CCC(C(=O)NC(C)C)CC3)CC2)n(C)n1
#14 O=C(CSc1nnc(-c2ccccc2)c(-c2ccccc2)n1)Nc1ncc(Cl)cc1Cl
#20 Cc1ccc(C(=O)NC(C(=O)Nc2cccc(S(N)(=O)=O)c2)C(C)C)cc1 (stereo unspecified)
#16 C#CC(CC)(CC)NC(=O)Nc1ccccc1C(=O)OC
#17 Cc1ccc2c(c1)Sc1ccccc1CC2=O

compound no.	19	12	14	20	16	17
gsp agonist	-9%[15.4 µM]	-1%	-11%	7%[15.4 µM]	-6%	?
TRPML1 blocker	-11	-10	0	-11	3	6
gsp antagonist	2%	7%	9%	2%	1%	-16%
ClpP mod	?	nt	-2.1%	nt	5.1%	-6.8%
TRPML1 agonist	0.0	0.4	0.0	0.4	-1.5	-0.3
Menin-MLL FL inh	nt	2.9	11	0.5	0.7	-1.5

The list continues:
#21 CCOC(=O)CN(C(=O)CNC(=O)c1cccs1)C(C(=O)NC1CCCC1)c1ccncc1 (stereo unspecified)
#22 Cn1c(-c2ccc3c(c2)OCO3)cnc1NC(=O)CCC(=O)NCCc1ccccc1
#23 CC(C)CC1NC(=S)N(C2CCCCC2)C1=O (stereo unspecified)
#24 O=C1CC(NCc2ccc(F)cc2)C(=O)N1c1ccccc1 (stereo unspecified)
#25 Cc1cccc(C(=O)NC2CCCCCCC2)c1
#26 COc1ccc(-n2c(=S)[nH]c3sc(-c4ccccc4)cc3c2=O)c(OC)c1
#27 Cn1c2ccc(Br)cc2c2nnc(SCC(=O)O)nc21
#28 Fc1ccc(-c2nnc(Cc3ccc(Cl)cc3)o2)cc1
#29 COc1ccc(/C=N/NC(=O)c2cc(-c3ccc(C)cc3C)nc3ccccc23)cc1COC(C)=O
#30 Cn1c(SCc2ccccn2)nc2c1c(=O)[nH]c(=O)n2C

compound no.	21	22	23	24	25	26	27	28	29	30
gsp agonist	-4%	27%	3%	?	6%	62%[15.4 µM]	3%	25%	-16%	23%
TRPML1 blocker	6	-9	1	-14	nt	4	0	nt	28	5
gsp antagonist	9%	2%	2%	8%	-2%	-10%	11%	-1%	-13%	-11%
ClpP mod	1.0%	-9.1%	0.7%	-0.3%	2.6%	-1.8%	0.8%	0.8%	-23%	0.4%
TRPML1 agonist	3.5	0.9	-0.7	-0.4	nt	-0.3	-0.6	nt	1.9	3.7
Menin-MLL FL inh	0.7	2.9	13	-4.5	-8.7	0.0	0.1	4.3	0.0	-2.9

Continuation.
Short forms: A = gsp agonist; B = TRPML1 blocker; C = gsp antagonist; D = ClpP mod; E = TRPML1 agonist; F = Menin-MLL FL inh
31	CCc1ccccc1NS(=O)(=O)c1ccc(SC)cc1
  A: ?; B: -15; C: -7%; D: -7.4%; E: 1.5; F: -1.5
32	COc1cccc(C(=O)NCC(=O)N/N=C/c2cccs2)c1
  A: ?; B: -14; C: 10%; D: -5.5%; E: 0.6; F: 1.9
33	Cc1ccc(C(=O)N[C@H](C(=O)OCC(=O)Nc2cccc(S(N)(=O)=O)c2)C(C)C)cc1
  A: 11%[15.4 µM]; B: 6; C: -6%; D: nt; E: 2.0; F: -1.3
34	O=c1cc(-c2c(O)c3ccccc3n(Cc3ccccc3)c2=O)[nH][nH]1
  A: 0%[15.4 µM]; B: -6; C: -16%; D: nt; E: -0.8; F: 1.5
35	Cc1c(NC(=O)CN2C(=O)NC3(CCCCC3)C2=O)c(=O)n(-c2ccccc2)n1C
  A: -14%[15.4 µM]; B: -6; C: 5%; D: nt; E: 0.0; F: 0.4
36	CC(=O)c1cccc(NC(=O)N2CCC(NC(=O)C34CC5CC(CC(C5)C3)C4)CC2)c1
  A: 9%[15.4 µM]; B: 16; C: -11%; D: nt; E: -1.1; F: 0.0
37	CC(C)OC(=O)c1cc(-c2ccc(C=O)o2)ccc1Cl
  A: 10%; B: 6; C: -6%; D: -4.8%; E: -0.1; F: 3.8
38	O=C1S/C(=C\c2ccc(N3CCOCC3)o2)C(=O)N1c1ccccc1
  A: -2%[15.4 µM]; B: -5; C: -7%; D: nt; E: 57*; F: ?
39	Cc1cc2nc(-c3cccc(NC(=O)c4ccc(Br)o4)c3)oc2cc1C
  A: -8%; B: -21; C: ?; D: ?; E: -0.6; F: 4.6

In the list so far, two have bromine:
Short forms: A = gsp agonist; B = TRPML1 blocker; C = gsp antagonist; D = ClpP mod; E = TRPML1 agonist; F = Menin-MLL FL inh
27	Cn1c2ccc(Br)cc2c2nnc(SCC(=O)O)nc21
  A: 3%; B: 0; C: 11%; D: 0.8%; E: -0.6; F: 0.1
39	Cc1cc2nc(-c3cccc(NC(=O)c4ccc(Br)o4)c3)oc2cc1C
  A: -8%; B: -21; C: ?; D: ?; E: -0.6; F: 4.6

Screens (PubChem BioAssay)
